Mtb hypoxia inh – inhibitors of hypoxia-regulated fluorescent reporter in Mycobacterium tuberculosis; M. tuberculosis hypoxia-regulated fluorescent reporter, fluorescence; fluorescence inhibition, % (test concentration not listed); 0.1% of 300,000 active; AID 1159583;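 active = 35 to 45% if threefold the growth effect, above 45% if 1.5-fold the growth effect; inactive = the rest, general growth blockers included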;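 also: wells of about 50 µL received 100 nL stock; 0% = vehicle wells and 100% = reference inhibitor wells; whole bacteria with a GFP reporter of the hypoxia response; strong numbers were not always called active; many hits fall short of the cut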
Bead autofluor – flagged as autofluorescent in microsphere protease counterscreen; compound autofluorescence counterscreen, microsphere flow cytometry; hits give high values; fluorescence intensity (no concentration beside the values); 3.1% of 360,000 active; AID 624483;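 active = at least 3 SD above the mean of all compounds, about 16000 in these data; inconclusive = too few beads counted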;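 also: 100 nL of 1 mM stock went into each well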
Sa ugtP lethal – compounds lethal to S. aureus RN4220 ugtP deletion mutant. growth inhibition, % (concentration not given with the values). OD600 growth, 16 h; some inactives read as strong as hits. 0.54% of 330,000 active. AID 1259309;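 active = z-score under -3 and OD600 up to 0.15 on both plates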;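 also: plate controls were untreated wells for no effect and antibiotic for full effect; wells of about 80 µL received 100 nL stock; the first replicate is given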
PrP UTR inh – suppresses PrP 5' UTR mRNA reporter expression; cell-based PrP 5' UTR mRNA reporter, plate reader; inhibition, % (test concentration not listed); 0.35% of 340,000 active; AID 488862;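 active = every replicate at 50% or more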;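 also: 0 = median of the neutral control wells; tested in H4 reporter cells; numbers are from one replicate; inactives centre near -14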
Sa RN4220 lethal – kills Staphylococcus aureus RN4220; S. aureus RN4220 growth, OD600, 16 h; inhibition, % (test concentration not listed); 0.33% of 330,000 active;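 active = z-score of -3 or lower and OD600 up to 0.18 on both plates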;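 also: plate controls were untreated cells for no effect and reference antibiotic for full effect; stock transfer was 100 nL into about 80 µL; one replicate is shown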
BJeLR viability – BJeLR cell viability loss; inhibition, % (no concentration beside the values); 0.17% of 300,000 active; BJeLR (HRASV12) viability, CellTiter-Glo ATP luminescence, 48 h; reference of the scale not given here; AID 1554;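 active = replicate mean above 50%; inconclusive = above 50% but judged a plate artefact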;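 also: 50 nL library stock added to about 25 µL; numbers are from one replicate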
Mtb hypoxia inh growth – further read-out of Mtb hypoxia inh, marked with its call; growth inhibition, %; measured here: M. tuberculosis growth (absorbance);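 0% = vehicle and 100% = reference antibiotic; read after six days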
Starred values were filed as active, the others as inactive; ? = inconclusive; nt = no result given; & = joins results of further samples.

SMILES	Mtb hypoxia inh	Mtb hypoxia inh growth	Bead autofluor	Sa ugtP lethal	PrP UTR inh	Sa RN4220 lethal	BJeLR viability
CC(=O)N/N=C(\C)CC(=O)NC(C)(C)C	nt	nt	5396	nt	-24	nt	-6
Nc1ccc(C23CC4CC(CC(C4)C2)C3)cc1	-8	-11	3518	-3	-25	2.1	-9
O=C(COC(=O)c1cc(Cl)cc(Cl)c1)NCc1ccco1	5	5	3940	9	-9	-0.4	nt
CCN1CCc2c(sc(NC(=O)c3ccc(S(=O)(=O)N4CCCCCC4)cc3)c2C(=O)NC)C1	8	16	6150	0	2	-3.5	16
CN(C)/C=C(\C#N)C(=O)N/N=C/c1ccc(F)cc1	nt	nt	2495	nt	-16	nt	8
O=C(Nc1cccc(Cl)c1N1CCCCC1)c1ccc(N2CCOCC2)c([N+](=O)[O-])c1	5	13	2017	0	-24	-3.0	-2
CCCC(=O)N/C(N)=N/c1nc(C)c2cc(C)ccc2n1	9	8	4699	0	nt	-1.1	14
CCN(CC)S(=O)(=O)c1cc(NC(=O)[C@@H](NC(N)=O)C(C)C)ccc1C	-1	-1	4009	2	-13	-0.2	1
CCCCN(CCCC)CCn1cnc2c([nH]c3ccc(OC)cc32)c1=O	1	2	5760	7	-51	7.9	8
CCOC(=O)c1cnc(SCC(=O)Nc2ccccc2C(=O)OC)nc1N	5	18	4738	2	-6	0.7	-7
COc1ccccc1N1CCN(C(=O)CCCCCn2c(=O)[nH]c3ccsc3c2=O)CC1	0	-16	4616	6	-1	3.1	-14
FC(F)(F)c1ccc(C2C3CN(Cc4cccnc4)C(c4ccccc4)C34CC2(c2ccccc2)C4)cc1 (stereo not drawn)	-5	15	nt	0	nt	-5.2	nt
COc1ccc(C(C#N)N2CCCCC2)cc1OC (stereo not drawn)	10	7	6234	4	-8	2.1	-1
COc1cccc(/C=C2/NC(=O)N(CC(=O)Nc3ccc(C)cc3)C2=O)c1OCc1cccc(C(=O)O)c1	-2	10	5769	9	-12	6.0	0
CCOC(=O)c1ccc(NC(c2ccc(N(C)C)cc2)P(=O)(OC(C)C)OC(C)C)cc1 (stereo not drawn)	-4	-1	2451	4	-43	3.8	6
O=[N+]([O-])c1ccccc1Oc1ccc(C(F)(F)F)cn1	4	6	2387	3	-15	1.9	10
CCN(CC(=O)NCc1ccc(Cl)cc1)C(=O)C1CCN(S(=O)(=O)c2ccc(OC)c(OC)c2)CC1	-5	3	?	6	-14	2.5	0
Cc1ccc2nc(SCC(=O)Nc3nonc3N)[nH]c2c1	1	2	4058	0	-22	8.2	10
COc1ccc(/C=C/C(=O)NC(=S)Nc2ccc(C(=O)O)cc2)cc1	6	6	10214	6	-30	3.0	7
O=S(=O)(O)c1ccc(N=Nc2ccccc2)cc1	-5	-10	3935	-4	-19	-2.7	5

Brought forward from above: seven entries, then new ones.
SMILES	Mtb hypoxia inh	Mtb hypoxia inh growth	Bead autofluor	Sa ugtP lethal	PrP UTR inh	Sa RN4220 lethal	BJeLR viability
COc1cccc(/C=C2/NC(=O)N(CC(=O)Nc3ccc(C)cc3)C2=O)c1OCc1cccc(C(=O)O)c1	-2	10	5769	9	-12	6.0	0
CCOC(=O)c1ccc(NC(c2ccc(N(C)C)cc2)P(=O)(OC(C)C)OC(C)C)cc1 (stereo not drawn)	-4	-1	2451	4	-43	3.8	6
O=[N+]([O-])c1ccccc1Oc1ccc(C(F)(F)F)cn1	4	6	2387	3	-15	1.9	10
CCN(CC(=O)NCc1ccc(Cl)cc1)C(=O)C1CCN(S(=O)(=O)c2ccc(OC)c(OC)c2)CC1	-5	3	?	6	-14	2.5	0
Cc1ccc2nc(SCC(=O)Nc3nonc3N)[nH]c2c1	1	2	4058	0	-22	8.2	10
COc1ccc(/C=C/C(=O)NC(=S)Nc2ccc(C(=O)O)cc2)cc1	6	6	10214	6	-30	3.0	7
O=S(=O)(O)c1ccc(N=Nc2ccccc2)cc1	-5	-10	3935	-4	-19	-2.7	5
Cc1ccc(C2NS(=O)(=O)N=C2N)cc1 (stereo not drawn)	6	2	14998	3	-11	1.5	4
O=C(Nc1ccccc1)N1CCN(Cc2ccccc2)CC1	nt	nt	3117	3	-10	1.9	3
O=C(Nc1cc(S(=O)(=O)N2CCCCC2)ccc1Oc1ccccc1)C1=COCCO1	4	9	7158	-1	-13	6.3	-2
COCCNC(=O)COC(=O)C=Cc1c(C)nn(Cc2ccc(Cl)cc2Cl)c1Cl	2	2	nt	-6	nt	7.9	nt
O=C1NC(=O)C(=Cc2ccccc2)N1	0	6	3817	1	2	3.2	nt
Cc1cc(C(=O)NNC(=O)/C=C/c2ccc(F)cc2)c(C)o1	-3	1	5579	-1	-8	3.2	-6
Nc1nonc1-c1nc2ccccc2n1CC(=O)NC1CCCC1	nt	nt	nt	-1	-11	-3.0	-3
Cc1n[nH]c(C)c1S(=O)(=O)N1CCCC(C(=O)NCc2ccccc2Cl)C1 (stereo not drawn)	-4	4	8426	0	-6	0.5	-8
CCOc1ccc(C(=O)Nc2ccc(NC(=S)NC(=O)CC)cc2)cc1Cl	nt	nt	2045	6	-21	1.8	-1
Cn1ccsc1=NC(=O)Nc1cccc(C(F)(F)F)c1	8	4	nt	-1	nt	6.3	nt
CNc1nc(C)nc(NN=Cc2ccccc2)n1	4	14	nt	9	nt	4.7	nt
CCOC(=O)c1sc(NC(=S)NC(=O)c2ccccc2)c(C(=O)OCC)c1C	-8	-1	2138	-4	-5	0.0	2
COc1ccc(NC2CCCN(C(=O)c3cc(C)nc4cc(F)ccc34)C2)cc1 (stereo not drawn)	10	8	4583	9	6	3.0	-1
CC1CNC(=O)C(=O)N1CC(Cc1ccc(O)cc1)NC(=O)CC12CC3CC(CC(C3)C1)C2 (stereo not drawn)	4	4	nt	-1	nt	3.5	nt
CCCCN(C(=O)c1cc(S(=O)(=O)N2CCOCC2)ccc1Cl)c1c(N)n(CC(C)C)c(=O)[nH]c1=O	-5	8	6392	2	-1	-0.5	1
COc1ccc(/C=N/NC(=S)Nc2ccccc2[N+](=O)[O-])cc1O	nt	nt	11023	nt	14	nt	23
COc1cc(NS(=O)(=O)c2ccc(N/C=C(\C#N)c3nc4ccccc4o3)cc2)nc(OC)n1	nt	nt	2771	nt	-10	nt	0
CN1CCN(C(=O)/C=C/c2ccc(Cl)cc2)CC1	6	0	4323	10	-47	6.6	-2
CN(C(=O)c1ccccc1)c1nc2ccccc2s1	3	2	2519	-2	-65	11	5
C=CCC(NCc1ccccc1)c1ccc(OC)cc1 (stereo not drawn)	nt	nt	3501	nt	-49	nt	-2

One compound at a time (already shown):
Results for CCOc1ccc(C(=O)Nc2ccc(NC(=S)NC(=O)CC)cc2)cc1Cl : Mtb hypoxia inh = nt; Mtb hypoxia inh growth = nt; Bead autofluor = 2045; Sa ugtP lethal = 6; PrP UTR inh = -21; Sa RN4220 lethal = 1.8; BJeLR viability = -1
Results for Cc1cc(C(=O)NNC(=O)/C=C/c2ccc(F)cc2)c(C)o1 : Mtb hypoxia inh = -3; Mtb hypoxia inh growth = 1; Bead autofluor = 5579; Sa ugtP lethal = -1; PrP UTR inh = -8; Sa RN4220 lethal = 3.2; BJeLR viability = -6

Next part
SMILES	Mtb hypoxia inh	Mtb hypoxia inh growth	Bead autofluor	Sa ugtP lethal	PrP UTR inh	Sa RN4220 lethal	BJeLR viability
Cc1cc(C(=O)CSc2nnnn2C)c(C)n1CCc1ccc(Cl)cc1	nt	nt	3241	4	1	2.9	4
COC(=O)C1=C(c2ccc(F)cc2OCc2ccccc2)CC2CCC1N2C(=O)NCc1ccc(F)cc1 (stereo not drawn)	-1	5	nt	8	nt	-7.8	nt
Oc1[nH]c2ccccc2c1N=Nc1nncc2ccccc12	25	14	4800	6	-42	8.4	-7
CCCC[n+]1c2ccccc2cc2ccccc21	nt	nt	3437	nt	-13	nt	2
COC(=O)C1=C(C(=O)OC)[C@@H]2N(Cc3ccccc3)c3ccccc3[C@@]23C[C@@H](C(=O)OC)N(C(=O)NC2CCCCC2)C3=N1	nt	nt	3916	nt	-14	nt	5
CCSCCOC(=O)C1=C(C)N(C)C(=O)NC1c1cc(OC)ccc1OC (stereo not drawn)	15	10	2394	-3	-2	12	4
NC(=O)N1c2ccccc2C=Cc2ccccc21	4&12	-9&13	3958&4414	-2&6	25&0	3.1&3.9	-6
Cc1cc(C(=O)OCC(=O)Nc2nccs2)c2ccccc2n1	-1	-7	4027	7	-27	1.9	-4
COc1cc(C(=O)OCC(=O)N2CCN(C(C)=O)CC2)ccc1OCC(C)C	nt	nt	9857	nt	-20	nt	1
COc1ccc2c(c1)C(=O)N(CCc1ccc(S(=O)(=O)NC(=O)NC3CCCCC3)cc1)C(=O)C2(C)C	0	0	?	9	0	9.6	8
Cc1csc(NC(=O)c2cc[n+]([O-])cc2)n1	-3	-1	4108	4	-24	8.8	-15
COc1ccc(OC)c(NC(=O)CCN2CC(C)CC(C)C2)c1 (stereo not drawn)	-1	2	4001	1	-14	3.4	-7
COc1ccccc1NC(=O)CCn1c(=O)c2cccn2c2ccccc21	-9	0	5558	-3	-15	2.7	10
CC(C)(C)OC(=O)N1CCC(NC(=O)c2[nH]cnc2C(=O)Nc2cccc(Cl)c2)CC1	6	4	4117	-35	9	-6.7	nt
CCN1CCN(c2ncnc3scc(-c4ccc(C)c(C)c4)c23)CC1	7	1	3837	13	1	0.6	11
CCOC(=O)C1(Cc2ccccc2)CCN(Cc2cc(OC)c3c(c2)OCO3)CC1	-3	-2	3939	4	-17	1.3	10
CCOc1ccc(S(=O)(=O)Nc2ccccc2C(=O)Nc2ccccc2N2CCOCC2)cc1	0	6	10906	-13	-7	4.6	3
O=C(N/N=C/c1ccccc1C(=O)O)c1ccncc1	nt	nt	3086	nt	-11	nt	-2
O=C(Nc1nccs1)c1cccc(S(=O)(=O)N2CCCCC2)c1	5	7	10800	15	-16	2.3	-1
COc1ccc(-n2ncc3c(NC(C)C)ncnc32)cc1	11	0	2416	-4	-48	6.8	-8
O=C(CSc1ccc2nnc(-c3ccccc3)n2n1)NCc1ccc2c(c1)OCO2	1	-1	5510	13	-25	6.6	-5
O=C(NN=Cc1cn(-c2ccccc2)nc1-c1cc2ccccc2o1)c1ccccc1Br	4	-3	nt	58	nt	17	nt
CC(C)(C)OC(=O)NCc1ccc(CNC(=O)c2nc[nH]c2C(=O)NCc2ccccc2)cc1	-1	0	3154	11	-11	4.9	nt
COc1cc(C(=O)N/N=C/c2ccc(OC(=O)c3ccccc3)c(OC)c2)ccc1O	nt	nt	5084	nt	-17	nt	-3
Nc1c(N(CCC2=CCCCC2)C(=O)Cc2ccc(F)cc2)c(=O)[nH]c(=O)n1Cc1ccccc1	-2	2	5783	-10	-22	-7.1	11
CO/N=C/c1ccc(N2CCN(C(=O)c3cccc(C(F)(F)F)c3)CC2)c([N+](=O)[O-])c1	nt	nt	10740	nt	-25	nt	0
COc1ccc(C2=NN(C(=O)c3ccc(Cl)c([N+](=O)[O-])c3)C(c3ccccc3)C2)cc1 (stereo not drawn)	3	6	4026	-26	-3	-6.7	-15
Cn1c(N)c(Br)c(-c2ccc(F)cc2)c(C#N)c1=O	13	0	4470	2	-9	-0.8	-3
CC1CCN(CC(O)COCCOc2ccc(Br)cc2)CC1 (stereo not drawn)	nt	nt	2623	8	-21	1.2	3
O=C(CCCCCCCCN1C(=O)c2ccccc2C1=O)N1CCOCC1	0	2	5963	6	nt	2.9	5
CN(c1nnc(N)s1)C1CCCCC1	nt	nt	5536	13	-33	2.0	3
Cc1cc(C(=O)Nc2ccc3c(c2)OCCO3)nn1C(C)(C)C	9	11	nt	6	-59	1.7	-14
CCCCn1c(N)c(N(CCC(C)C)C(=O)c2cccc(N3C(=O)c4ccccc4C3=O)c2)c(=O)[nH]c1=O	nt	nt	?	nt	-35	nt	7
CC(Nc1ccc(Br)cc1)C(=O)Nc1cccc(S(=O)(=O)N2CCOCC2)c1 (stereo not drawn)	2	1	?	3	-20	-1.3	nt
Cc1ccc(S(=O)(=O)N2CCOCC2)cc1C(=O)OCC(=O)NCCc1ccccc1	-1	4	3888	2	9	3.2	nt
CC/C(C)=N/N1C(=O)c2ccccc2NC1(C)CC (stereo not drawn)	nt	nt	2375	nt	-9	nt	10

Screening data from PubChem BioAssay.
